Screening results as filed in PubChem BioAssay.
NPYLR7 agonist – agonists of mosquito NPYLR7 receptor, primary screen, cell-based, Aedes aegypti, calcium fluorescence, mosquito biting behavior. hit rate 0.15% among 270,000. activation, % at 10 µM. HEK293T NPYLR7/Galpha15, GCaMP6s calcium fluorescence. Aedes aegypti neuropeptide Y-like receptor 7 (NPYLR7); in the data active = activation above about 40%;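 also: 0% = vehicle and 100% = reference agonist at the receptor; some compounds past the cut are filed as inactive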
NPYLR7 agonist max-min – also measured in NPYLR7 agonist; calls as there; activation, %; measured here: Max-Min RFU normalised activation; some inactives read as strong as hits;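 span of the calcium signal over five minutes; 0% = vehicle and 100% = native peptide agonist; compound fluorescence can raise it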
Numbers without * were called inactive; & = joins results of further samples.

SMILES | NPYLR7 agonist | NPYLR7 agonist max-min
O=C1CN(c2nc(-c3ccsc3)nc3ccccc23)CCN1 | 19 | 19
CCOc1ccc(NS(=O)(=O)c2ccc3[nH]cc(C(=O)O)c(=O)c3c2)cc1 | 1 | -2
Cc1cc(O)c(C(c2ccncc2)c2c(O)cc(C)[nH]c2=O)c(=O)[nH]1 | 5 | 9
Cc1c(C(=O)NCc2cccnc2N(C)C)n(C)c2c(C)cccc12 | 7 | 6
CCCCc1cnc2c(c1SCC(=O)Nc1ccccc1C(F)(F)F)c(=O)n(C)c(=O)n2C | 7 | 11
O=C(Nc1nnc(-c2cccs2)s1)c1ccc2c(c1)OCO2 | 0 | 0
O=C(NCc1ccc(C(F)(F)F)cc1)c1ccc(-c2cc(-c3cccc4ccccc34)[nH]n2)cc1 | 21 | 12
Cc1cccc(C)c1Nc1c(CCc2ccccc2)nc2c(C)cccn12 | 16 | 13
COc1cccc(-c2cc(C(=O)N(CCC(=O)NCCC3CCCN3C)CC(C)C)no2)c1 (centres undefined) | 6 | 4
CCCNC(=O)c1nnc2n1CCN(C(=O)C1CCCCC1)C2 | 6 | 0
O=C(CCN(CCc1ccccc1)c1nc(-c2ccc(F)cc2)nc2ccccc12)Nc1cccc(F)c1 | 10 | 20
CCN(C(=O)CCN1CCOC2(CCCC2)C1)c1ccccc1 | 4 | 2
O=C1OCCN1CCn1cnc2sc3c(c2c1=O)CCNC3 | -8 | -18
CCCn1nnnc1NCc1ccccc1OCC | 1 | -1
Cc1cc2occ(CC(=O)N3CCC(O)(CN(C)C)C3)c2cc1Cl (centres undefined) | 11 | 7
Cc1nnc(NC(=O)CCCC(=O)c2ccc(F)cc2)s1 | 7 | 6
Cc1nc2c(c(N(C)C)n1)CCN(C(=O)C1CCCN1S(C)(=O)=O)C2 (centres undefined) | 8 | 6
COc1ccccc1-n1c(CNC(=O)c2cccs2)nnc1SCC(=O)Nc1nnc(C)s1 | -1 | 4
Cn1ccnc1SCCn1cc2ncccc2c1O | 7 | 3
CCCN(CCC)S(=O)(=O)c1ccc(C(=O)O)cc1 | -10&-3&-7 | -13&-10&-11
CCCc1nc(C)c(CNC(=O)CC(=O)Nc2ccccc2C)s1 | 2 | -2
O=C(Cc1ccccc1)Nc1ccc2[nH]cc(CCN3CCN(c4cccc(C(F)(F)F)c4)CC3)c2c1 | 13 | 0
COc1cc(OC)cc(C(=O)OCCC2CCCCN2C2=NS(=O)(=O)c3ccccc32)c1 (centres undefined) | 3 | 4
Cc1nc(CS(=O)(=O)c2nccn2-c2ccccc2C(C)C)no1 | 1 | 51
COc1cc(C2N(c3cc(C)on3)C(=O)C3CCCN32)cc(OC)c1OC (centres undefined) | -6 | -4
Cc1nn2c(-c3cccc(NC(=O)CN4CCCCC4)c3)nnc2c2ccccc12 | 2 | 2
Clc1ccc(C2=Nn3c(nnc3-c3cccnc3)SC2)s1 | 4 | 2
C=CCn1c(C)nn(CN2CCc3cc(OC)c(OC)cc3C2c2ccccc2)c1=S (centres undefined) | -1 | 16
CC1(C)CC(=O)C2=C(C1)OC(=N)C(C#N)C2c1cccc(F)c1 (centres undefined) | -1 | -1
O=[N+]([O-])c1ccccc1Oc1ccc2ccccc2c1Cl | -2 | -5
CCc1[nH]n(-c2ccc(Cl)c(Cl)c2)c(=O)c1C1=C(N2CCOCC2)C(=O)N(CC(C)C)C1=O | -11&-2 | -3&-5
C=CCCC(=O)N1c2cccc3c2[C@@H](C[C@H]1C(N)=O)CN(c1ccccc1)C3=O | 3 | 14
Cc1sc2[nH]c(=S)[nH]c(=O)c2c1C | 7 | 5
CCn1ccc2cc(-c3c(-c4ccccc4)ncn3CCC(N)=O)ccc21 | 22 | 8
N#CCNC(=O)C1CCN(C(=O)C(c2ccccc2)n2cccc2)CC1 (centres undefined) | 11 | 3
CCCCCCCN1N=C(c2ccc(F)cc2)Cn2c1nc1c2c(=O)n(C)c(=O)n1C | 11 | 17
O=C(CCC(=O)N1CCCC2(CCNCC2)CC1)c1ccc(F)cc1 | 14 | 4
C#CCN(Cc1ccco1)C(=O)C1CC(=O)N(c2ccccc2OC)C1 (centres undefined) | 6 | 7
C=CCOc1cccn2c(N(C=O)Cc3ccccc3)c(CC)nc12 | -11 | -1
CC1=C(CC(=O)NCc2ccccn2)c2cc(F)ccc2/C1=C\c1ccc(S(C)=O)cc1 (centres undefined) | 1 | 3
CCCCc1ccc(C(=O)N(CC(=O)c2c(C)c(C(=O)OCC)n(CC)c2C)C2CC2)cc1 | -1 | 10
O=C(c1nc2ccccn2c1CNCCN1CCCCC1CO)N1CCCC1 (centres undefined) | 8 | 11
COCCN1CCC(C(=O)N(C)Cc2cccc(Cl)c2)C1 (centres undefined) | 0 | -5
COc1ccc(Cl)cc1NC(=O)Cn1nc(C)c([N+](=O)[O-])c1C | -5 | -9
CS(=O)(=O)Nc1ccc(-c2cccc3ccsc23)cn1 | 14 | 8
CC(=O)N1CCN(C(=O)C(C)N2CCN(CC(C)O)C(C)C2)CC1 (centres undefined) | 1 | -4
COc1ccccc1C(=O)Nc1ccc(Nc2cc(-n3ccnc3)ncn2)cc1 | -7 | -10
NC(=O)CSc1cn(CC(=O)N2CCCCCC2)c2ccccc12 | -2 | -3

Three compounds from above, arranged by SMILES length, highest first.
SMILES | NPYLR7 agonist | NPYLR7 agonist max-min
CC1=C(CC(=O)NCc2ccccn2)c2cc(F)ccc2/C1=C\c1ccc(S(C)=O)cc1 (centres undefined) | 1 | 3
CC(=O)N1CCN(C(=O)C(C)N2CCN(CC(C)O)C(C)C2)CC1 (centres undefined) | 1 | -4
C=CCOc1cccn2c(N(C=O)Cc3ccccc3)c(CC)nc12 | -11 | -1

(next part)
SMILES | NPYLR7 agonist | NPYLR7 agonist max-min
O=C(COc1cc(Cl)cc(Cl)c1)NC1CCOC1 (centres undefined) | -3&1 | 4&-1
CCn1nc(C)c(C2NC(=O)CN2Cc2ccccc2)c1C (centres undefined) | 1 | 0
CCCCNC(=S)N1CCn2cccc2C1c1ccncc1 (centres undefined) | -1 | -3
O=C(c1ccncc1)N1CCC(n2cnc3cc(C(F)(F)F)ccc32)CC1 | -3 | -2
COc1cc(N)c(Cl)cc1C(=O)N1CCN(Cc2ccc3c(c2)OCO3)CC1 | -32 | -35
O=C(NCc1ccncc1)C1COC2(CCCCC2)N1C(=O)c1ccc(F)cc1F (centres undefined) | -4 | 5
O=C(C1CCN(S(=O)(=O)c2ccccc2C(F)(F)F)CC1)N1CCCC1c1ccccc1 (centres undefined) | 4 | 1
COc1ccc2c(=O)c(-c3cc4c(cc3OC)OCO4)coc2c1 | -4 | -6
Cc1ccc2c(c1)N(CC(=O)N(C)Cc1ncc[nH]1)C(=O)CO2 | 1 | 1
CC(C)(C)c1ccc(-c2cc(C[C@H]3CNCC[C@H]3CC(=O)N3CCc4ccccc4C3)no2)cc1 | -8 | -16
Cc1ccc(N2CCCN(C(=O)c3cncnc3C)CC2)nn1 | 1 | 1
CCc1ccccc1OCC(=O)Nc1cnccc1C | 0 | -3
CC(C)(C)NCc1ccc(O)cc1 | 2 | 4
CN(CCc1cnn(C)c1)C(=O)CC1C(=O)NCCN1Cc1ccc(-c2ccccc2)cc1 (centres undefined) | 0 | -2
COc1ccc(/C=N\Nc2nc(-c3cc4ccccc4oc3=O)cs2)cc1 | 5 | -4
c1csc(-c2nc3nc4ccccc4nc3n2-c2ccc3c(c2)OCCO3)c1 | -1 | -8
O=S1(=O)C=CC(Nc2ncnc3sc4c(c23)CCC4)C1 (centres undefined) | 7 | 1
O=C(CCC1CCN(C(=O)C2CC23CCCCC3)CC1)NCc1cccc(Cl)c1 (centres undefined) | 13 | 18
Cc1ccc(C(=O)N(CCN2CCOCC2)Cc2nccn2Cc2ccccc2C(F)(F)F)cc1 | 6 | 14
NS(=O)(=O)C1CCCN(C(=O)c2cc3c(F)cccc3s2)C1 (centres undefined) | -1 | 2
CCn1c(C)c(C(=O)CN(Cc2ccco2)C(=O)C(C)(C)CCl)c(C)c1C(=O)OC | -12 | 0
CC(C)CNC(=O)[C@@]1(OCc2cccc(F)c2)CC(OCc2ccc(F)cc2)[C@H](O)[C@H](O)C1 (some centres undefined) | 9 | 11
CCOC(=O)C1=CN(c2ccc(OCC)cc2)C=C(C(=O)OCC)C1c1ccc(OC(F)(F)F)cc1 | -14 | -6
Cc1ccc(-c2nnc(SCc3ccc(C(=O)N4CCN(C)CC4)cc3)n2-c2ccc(F)cc2)cc1 | 3 | 17

Some of these compounds in order of number of heavy atoms, rising:
SMILES | NPYLR7 agonist | NPYLR7 agonist max-min
CC(C)(C)NCc1ccc(O)cc1 | 2 | 4
CCc1ccccc1OCC(=O)Nc1cnccc1C | 0 | -3
NS(=O)(=O)C1CCCN(C(=O)c2cc3c(F)cccc3s2)C1 (centres undefined) | -1 | 2
Cc1ccc2c(c1)N(CC(=O)N(C)Cc1ncc[nH]1)C(=O)CO2 | 1 | 1
COc1ccc2c(=O)c(-c3cc4c(cc3OC)OCO4)coc2c1 | -4 | -6
COc1ccc(/C=N\Nc2nc(-c3cc4ccccc4oc3=O)cs2)cc1 | 5 | -4
c1csc(-c2nc3nc4ccccc4nc3n2-c2ccc3c(c2)OCCO3)c1 | -1 | -8
O=C(CCC1CCN(C(=O)C2CC23CCCCC3)CC1)NCc1cccc(Cl)c1 (centres undefined) | 13 | 18
O=C(NCc1ccncc1)C1COC2(CCCCC2)N1C(=O)c1ccc(F)cc1F (centres undefined) | -4 | 5
O=C(C1CCN(S(=O)(=O)c2ccccc2C(F)(F)F)CC1)N1CCCC1c1ccccc1 (centres undefined) | 4 | 1
CC(C)CNC(=O)[C@@]1(OCc2cccc(F)c2)CC(OCc2ccc(F)cc2)[C@H](O)[C@H](O)C1 (some centres undefined) | 9 | 11
Cc1ccc(C(=O)N(CCN2CCOCC2)Cc2nccn2Cc2ccccc2C(F)(F)F)cc1 | 6 | 14
CCOC(=O)C1=CN(c2ccc(OCC)cc2)C=C(C(=O)OCC)C1c1ccc(OC(F)(F)F)cc1 | -14 | -6

(more compounds)
SMILES | NPYLR7 agonist | NPYLR7 agonist max-min
CCCCn1c(=O)c2c(nc3n2CC(C)CN3c2ccccc2)n(C)c1=O (centres undefined) | 20 | 9
CCOC(=O)n1c(SCC(=O)N(CC)CC)nc2ccccc21 | 2 | 0
CCCCS(=O)(=O)N1CCN(c2cc(S(=O)(=O)N(C)CCc3ccc(OC)c(OC)c3)ccc2OC)CC1 | 4 | -3
Fc1cc(Br)ccc1Nc1nc2ccccc2n2nnnc12 | 14 | 4
COc1ccc(CN(CCc2c[nH]c3ccccc23)C(=O)CN(CC(C)C)C(=O)c2ccc(Cl)cc2)cc1OC | 22 | 20
CC(C)c1ccc(-c2nnn(CC(=O)c3ccc(O)cc3)n2)cc1 | -4 | -5
O=C(c1ccccc1Cl)N1CCSC1c1cccc(OCc2ccccc2)c1 (centres undefined) | -9 | 0
Cc1cc(C)cc(-n2ccnc2S(=O)(=O)Cc2ncnn2C)c1 | 1 | 6
COc1ccc(OCCOc2c(Cl)cc(Cl)cc2/C=N\n2cnnc2)cc1 | -6 | -13
COc1ccc(CNC(=O)N(Cc2ccncc2)C2CCN(C)CC2)cc1 | 0 | 1
O=c1cc(Cn2ncc(Cl)c(Cl)c2=O)[nH]c(=O)[nH]1 | 4 | -2
CN1CCN([C@@H]2[C@H](O)[C@H](CO)O[C@@H]2CNC(=O)c2ccc(C(F)(F)F)cc2)CC1 | -10 | -10
CCc1ccccc1OCC(=O)Nc1ccc(-c2nnco2)cc1C | 7 | 7
Cc1cccc(Cn2c3c(c(C)c2C(=O)Nc2ccc(C(C)C)cc2)CCCC3)c1 | 26 | 31
CCc1ccc(NC(=O)CN2CN(c3ccccc3)C3(CCN(C(=O)C4CCCCC4)CC3)C2=O)cc1 | -3 | 8
O=C(Nc1ccnn1C1CCN(Cc2nc(-c3ccc(F)cc3)cs2)CC1)C1CC1 | -5 | -8
O=C(CSCc1ccccc1)Nc1ccc2c3c(cccc13)CC2 | -8 | -18
O=C(Nc1ccc(Nc2cc(-n3cccn3)ncn2)cc1)Nc1ccc(F)cc1F | -3 | -8
Cc1ccc(NC(=O)N2CCCC(OCc3cc(F)ccc3F)C2)cc1 (centres undefined) | -4 | 4
COc1ccc2oc(CNC(=O)CCNC(=O)c3ccccc3F)nc2c1 | 10 | 5
Cc1cccc(NC(=O)CSc2c(C)[nH]c3ccccc23)c1 | -3 | -4
COc1cc(C=C2C(=O)N(C)C(=O)N(C)C2=O)cc(Cl)c1O | 10 | 2
CCS(=O)(=O)c1ccc2c(c1)N(Cc1ccc(Cl)cc1)C(=O)C(C)O2 (centres undefined) | 2 | -2
CC(NC(=O)n1ccnc1)c1ccc(F)cc1 (centres undefined) | -4 | 0
CSCC[C@@H](CO)NC[C@@H]1CCCN2CCCC[C@H]12 | 5 | 4
CN(CCCNS(=O)(=O)c1cc(F)cc(F)c1)c1ccccn1 | 4 | 1
O=c1[nH]c(Cc2cccc(F)c2)nc2c1sc1ccccc12 | -3 | -2
CCOC(=O)c1cccnc1Oc1cccc(NC(=O)/C=C/c2ccc(C)cc2)c1 | 20 | 3
Cc1ccc(-c2cc(C(F)(F)F)n3ncc(C(=O)Nc4cc(Cl)cc(Cl)c4)c3n2)cc1 | 4 | 1
CCC(=O)NC(=Nc1nc(C)c2cc(OC)ccc2n1)NC(=O)CC | 1 | -5
CC1(C)CC(N2CCCCC2)=CC(=[N+]2CCCCC2)C1 | -3 | 6
CCc1c(C)[nH]n(-c2nc(C)cc(C)n2)c1=O | 0 | 11
Cc1ccc(-c2nc(NCCc3cccnc3)ncc2-c2ccc(N)nc2)cc1 | 3 | -1

A portion of the library. The share of hits here may be higher or lower than overall.
